Bioassay records: PubChem, National Center for Advancing Translational Sciences (NCATS)
VDR inh – vitamin D3 receptor (human) inhibition. VDR-SRC2-3 peptide fluorescence polarization, 2 h. Potency, µM, without a hit: max response, negative = inhibition, actives largely listed as inhibitors. 400,000 compounds, 0.93% hits; active means well fitted inhibition curve with a large enough effect; inconclusive means small, poorly fitted or top-dose-only effect, or another doubt; inactive means no such curve, though single readings can be large or run the other way; further: series mostly up to about 120 µM
Target sequence (P11473 whole entry, looked up): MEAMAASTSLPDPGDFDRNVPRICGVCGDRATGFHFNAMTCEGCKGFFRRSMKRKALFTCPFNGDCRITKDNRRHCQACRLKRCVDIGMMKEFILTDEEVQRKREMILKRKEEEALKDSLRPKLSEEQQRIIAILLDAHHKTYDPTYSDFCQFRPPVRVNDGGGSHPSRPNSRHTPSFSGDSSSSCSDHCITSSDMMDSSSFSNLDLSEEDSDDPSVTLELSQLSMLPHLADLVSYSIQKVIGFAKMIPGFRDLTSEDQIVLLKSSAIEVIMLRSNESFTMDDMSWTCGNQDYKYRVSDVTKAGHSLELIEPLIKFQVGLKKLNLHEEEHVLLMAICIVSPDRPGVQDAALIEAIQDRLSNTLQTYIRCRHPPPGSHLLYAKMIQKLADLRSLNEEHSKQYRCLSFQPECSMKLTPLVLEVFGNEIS
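Fluorescence polarization assay of small-molecule disruption of VDR binding to coregulator peptide SRC2-3. Compounds and controls pin-transferred, then read after 2 h incubation at ambient room temperature.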
Active calls of the source: *; ? = inconclusive; & = joins results of further samples; [ ] = another dose, or the depositor's remark. On the % scale 0 is the no-effect control and ±100 the full control effect; potency means the concentration at half of the fitted maximal effect. This is a subset, so the mix of outcomes need not match the whole.

VDR inh | SMILES
-13% | COc1cc(/C=C(\C#N)C(=O)N2CCOCC2)ccc1OCc1ccccc1
-17% | O=C(COC(=O)c1cccc([N+](=O)[O-])c1)NC1CCCC1
-24% | CCOC(=O)c1sc(NC(=O)CC)nc1C
8%&5% | O=C(NCCN1CCOCC1)C1(C(F)(F)F)C/C(=C\Cc2ccccc2)CCCO1 (stereo not given)
-4% | CCOC(=O)c1c(C)n(C)c2ccc(OC)c([N+](=O)[O-])c12
-13% | COc1ccc(C)cc1NC(=O)Nc1ccncc1
12%&-2% | Cc1ccc(CCNC(=O)CCCn2nc(C)c3c(C)n(-c4ccc(C)cc4)nc3c2=O)cc1
4% | CCCOc1ccc(/C=N/NC(=O)C2CCCN2S(=O)(=O)c2ccc(Cl)cc2)cc1 (stereo not given)
-4% | CC(=O)c1c(C)[nH]c(C(=O)CSc2nnc(-c3ccco3)n2Cc2ccccc2)c1C
34%[activator] | COC(=O)C(C#N)c1nc2ccccc2nc1N1CCCC1 (stereo not given)
-17% | O=C(Nc1nnc(Cc2ccccc2)s1)C1CCN(C(=O)c2ccco2)CC1
-17% | CCOC(=O)C1(CC2CCCCO2)CCN(Cc2ccccc2-c2ccco2)CC1 (stereo not given)
2% | COc1cccc(N2CCN(c3nc(C)c(C)c(=O)[nH]3)CC2)c1
-7% | CC(C(=O)O)N1C(=O)/C(=C/c2cccn2C)SC1=S (stereo not given)
? | COc1cc(N=C2C(=O)N3CCCc4cccc2c43)cc(OC)c1
-7% | CN1CCN(Cc2nc3c([nH]2)c(=O)[nH]c(=O)n3C)CC1
5% | O=C(O)CC1S/C(=N\N=C/c2ccccc2O)N(c2ccc(O)cc2)C1=O (stereo not given)
-20% | COc1ccc(NC(=S)N2CCN(Cc3ccco3)CC2)c(OC)c1
? | Cc1cc2oc(=O)cc(-c3ccccc3)c2c(C)c1-c1sccc1C=O
-12% | Cn1c(=O)c2c(nc(N3CCc4ccccc4C3)n2C)n(C)c1=O
2% | O=C(OCCCN1C(=O)c2ccccc2C1=O)c1ccco1
1% | Cc1cccc(C(C)C)c1NC(=O)C1CN(S(=O)(=O)c2ccccc2)CCN1S(=O)(=O)c1ccccc1 (stereo not given)
-15% | O=C(C=Cc1cccs1)c1cccs1
10% | CC(C)(C)OC(=O)N1CCCC(C(=O)Nc2ccc(C(=O)NCc3ccccc3)cc2)C1 (stereo not given)
-15% | COc1ccc(N(CC(=O)N2CCc3ccccc3C2)S(C)(=O)=O)cc1OC
-5% | CC1(C)Cc2c(sc(NC(=O)COc3cccc4ccccc34)c2C#N)C(C)(C)N1
14% | O=C(N/N=C\c1cccc(Cl)c1)c1n[nH]c2c1CCCC2
2% | O=C(CCS(=O)(=O)c1ccccc1)Nc1nc2ccc(F)cc2s1
-1% | CCCn1c(C)cc(C(=O)COc2ccc(C)nc2[N+](=O)[O-])c1C
-11% | CCc1cccc(N(CC(=O)NCc2ccc(F)cc2)C(=O)c2csnn2)c1
11% | CCC(=O)c1c[nH]c(C(=O)NCc2cccs2)c1
-2% | COc1ccc(C(C)=O)cc1CSc1nnc(Nc2ccccc2C)s1
89µM* | CC(C)c1nnc(SCC(=O)NCCC2=CCCCC2)n1N
4% | CC(C)OCCCN(Cc1ccco1)C(=O)c1cc2c(s1)-c1ccccc1OC2
7%&-10% | COc1ccc(C2C3=C(COC3=O)Oc3cc4c(cc32)OCO4)cc1OC (stereo not given)
-3% | CC(C)CCN1CCN(Cc2nc3ccccc3s2)CC1CCO (stereo not given)
13% | CCCC(CCC)C(=O)NCCN1CCOCC1
-4% | O=C(NCc1ccccc1Cl)C1CCN(S(=O)(=O)N2CCCCCC2)CC1
1% | COc1cc(C(=O)Nc2ccc(OCC(=O)N3CCOCC3)cc2C)cc(OC)c1OC
-5% | COc1cc(C#N)ccc1OCC(=O)c1ccc2c(c1)OCCO2
-5% | Cc1ccc(C)c(CN2C(=O)c3ccccc3S(=O)(=O)c3ccc(C(=O)NCc4ccccc4)cc32)c1
-14% | CC1(C)Cc2c(cnn2-c2ccc(F)cc2)C(NC(=O)c2ccoc2)C1 (stereo not given)
-15% | O=C(NC(CC1CCCCC1)C(=O)O)c1ccccc1 (stereo not given)
10% | CC(NC(=O)c1ccc(N(C)C)cc1)C(c1cccs1)N1CCN(C)CC1 (stereo not given)
-19% | O=C(Nc1ncc(Cc2ccccc2)s1)C1CCN(C(=O)c2ccco2)CC1
-5%&-2% | CCCN(C(=O)CCNC(=O)Cn1cnc2ccccc2c1=O)c1cccc(C)c1
-3% | O=C(NCC1(O)CCCCC1)C1CCC(=O)N(Cc2cccc(C(F)(F)F)c2)C1 (stereo not given)
-2% | COc1ccc(S(=O)(=O)N2CCN(C(=O)NC3CCCCC3)CC2)cc1
-16% | O=C1c2cccc([N+](=O)[O-])c2C(=O)N1c1cccnc1
4% | COc1ccccc1/C=N/NC(=O)COCC(=O)N/N=C/c1ccccc1OC
-10% | O=C(CSc1ncc2c(n1)-c1ccccc1N(Cc1ccc(F)cc1)S2(=O)=O)NCCc1ccccc1
-5% | COc1ccc(N2CCN(CC(O)COC(C)(C)C)CC2)cc1 (stereo not given)
13% | CCOC(=O)c1ccc(NC(=O)CSc2nc3ccccc3c(=O)n2CCNC(C)=O)cc1
-27% | O=C(NCCN1C(=O)S/C(=C\c2cccc(Cl)c2Cl)C1=O)C1=COCCO1
-4% | Cc1ccccc1NC(=O)Cc1nc(COC(=O)c2ccc(C(F)(F)F)cc2)cs1
-10% | CCCCNc1c(-c2ccc(OC)c(SC(C)CC)c2)nc2cnccn12 (stereo not given)
12% | CC(C)c1cn(C2OC(COC(=O)c3ccccc3)C(OC(=O)c3ccccc3)C2OC(=O)c2ccccc2)c(=O)[nH]c1=O (stereo not given)
? | O=S(=O)(c1ccc(F)cc1)N1CCCN(Cc2c(F)cccc2F)CC1
-1% | CCOC(=O)c1c(C)[nH]c(C)c1S(=O)(=O)N1c2ccccc2CC1C (stereo not given)
9%&-4% | CCOc1ccc(-c2nonc2NC(=O)c2ccco2)cc1OCC

(next part)
VDR inh | SMILES
-14% | CSCc1c(C(=O)Nc2ccccc2N2CCOCC2)oc2ccccc12
-11% | Cc1ccc(CC(=O)O/N=C(\N)Cc2ccc([N+](=O)[O-])cc2)cc1
-19% | O=c1cc(O)n(-c2ccc(Cl)cc2)c(=S)[nH]1
1% | O=C(NCc1ccco1)c1cccc(NC(=O)c2ccccc2)c1
-4% | COc1cc(/C=C/C(=O)N2CCN(c3ccccn3)CC2)cc(OC)c1OC
-10% | COc1ccc(-c2nnc(NC(=O)Cc3ccccc3)s2)c(OC)c1
-4% | O=C(NC1CC1)C1=C[C@@H](c2ccc(Br)cc2)C[C@@H](OCCCCO)O1
-4% | CCc1ccc(N(C(=O)CNC(=O)c2ccco2)C(C(=O)NC2CCCC2)c2cccnc2)cc1 (stereo not given)
-13% | C[C@H]1CN=C(N(C)C)N1CC1CCCCC1
-3% | CCOc1ccc(NC(=O)NCCCN2CCCC2)cc1
-6% | COc1ccccc1N1CCN(C(=O)c2cc3sccc3n2C)CC1
18% | Clc1cc(Br)ccc1OCCOCCN1CCOCC1
0% | CC(=O)Nc1cccc(C(=O)Nc2ccc(S(=O)(=O)N3CCCCC3)cc2)c1
-12% | O=C(CSc1ncc(C(F)(F)F)cc1Cl)N1CCNC1=O
-22% | COc1ccccc1N1CCN(CC(=O)c2ccc(F)cc2)CC1
10% | CCc1cccc(NC(=O)c2ccc(NC(=O)N3CCSc4ncccc43)cc2)c1
2% | CN1CCc2c(c3c(n2C)CCN(C)[C@@H]3c2cccnc2)[C@H]1c1cccnc1
1% | NC1=NC(=O)/C(=C\c2cccs2)S1
? | C=CCn1c(=S)[nH]c2ccc(Br)cc2c1=O
-7% | N#Cc1ccc(OCC(=O)OCC(=O)NCCC2=CCCCC2)cc1
7% | CC1(c2ccc([N+](=O)[O-])cc2)NC(=O)NC1=O (stereo not given)
4% | Cc1ccc(Cl)c(OCC(=O)NC2CCN(Cc3ccccc3)CC2)c1
7.1µM* | O=C(O)c1cccc(-n2sc3ccccc3c2=O)c1
-3% | C=CCn1cc(C(=O)NCCCOC)c(=O)c2cc(S(=O)(=O)N(CC)CC)ccc21
-9% | Cc1cccc(Nc2nc(-c3c(C)nc4ccccn34)cs2)c1
9% | CCC1=NN2C(=N)/C(=C\c3cccn3-c3ccc(C)c(C)c3)C(=O)N=C2S1
-8% | COc1ccc(Cl)cc1C(=O)NCC(c1ccco1)N1CCCC1 (stereo not given)
9% | CNC(=O)C(=O)NCCN1CCN(S(=O)(=O)c2ccc3ccccc3c2)CC1
-6% | Cc1cc(NS(=O)(=O)c2ccc(Nc3nc(-c4ccc(C)c(C)c4)cs3)cc2)no1
0% | COc1ccc(-c2nc(CNC(=O)Nc3ccccc3)c(C)o2)cc1
9% | CCn1c(CNC(=O)C2CCCCC2)cc2cc(C)ccc21
0% | O=C(CCC(=O)c1ccc(F)cc1)NCc1ccccc1C(F)(F)F
-18% | CCCN1CCN(C(=O)Cn2ncc3c([nH]c4ccc(C)cc43)c2=O)CC1
3% | NC(=O)NC(=O)COC(=O)c1ccccc1Oc1ccccc1
-13% | COc1cccc(C(c2nnnn2Cc2ccco2)N2CCN(Cc3ccccc3)CC2)c1OC (stereo not given)
-17% | CC(C)CCN(C(=O)c1cn2ccccc2n1)c1c(N)n(Cc2ccccc2)c(=O)[nH]c1=O
7% | CC(C)Oc1ccc(NC(=O)CCC(=O)O)cc1
9% | COc1ccc([C@H]2CC(=O)C=C(c3cc4ccccc4s3)C2)cc1OC
13% | COc1ccccc1CCC(=O)OCC(=O)NCc1ccc(OC)c(OC)c1
10% | COc1ccccc1OCCOCCOc1c(C)cc(C)cc1Br
5% | CC(=O)N1CCN(C(=O)c2ccc3c(c2)OCO3)CC1
4% | COC(=O)c1ccc(NC(=O)c2cn(-c3ccccc3)nc2-c2ccncc2)cc1
2% | COc1ccc(S(=O)(=O)NCCc2cn3ccsc3n2)cc1OC
-5% | Cc1ccc(-c2nc(N)nc(N)n2)c(C)c1
? | COc1ccccc1-c1cncnc1NCc1cccnc1
-20% | CC(=C1C(=O)c2ccccc2C1=O)N1CCN(Cc2ccccc2)CC1
-10% | COc1ccc(N2CCN(C(=O)C3CCN(C(=O)c4cccc(Cl)c4)CC3)CC2)cc1
-14% | CCn1c(=O)c2cc(C(=O)N(CCCOC(C)C)Cc3ccco3)sc2c2ccccc21
-3% | O=C(N/N=C/C=C/c1ccccc1[N+](=O)[O-])c1cccnc1
12% | CCc1ccccc1NC(=O)c1ccc2c(O)c(S(=O)(=O)c3ccccc3)c(=O)[nH]c2c1
-10% | CCOC(=O)/C(=N\Nc1ccc(Cl)cc1)Sc1nnc(-c2ccc(OC)cc2)n1C
-7% | Clc1ccccc1OCCCCN1CCCCC1
-3% | O=C(O)c1cccc(NS(=O)(=O)c2ccc(Cl)c(C(=O)Nc3cccc([N+](=O)[O-])c3)c2)c1
17% | CCSC1=N/C(=C\C=C2/Oc3ccccc3N2CC)C(=O)S1
-11% | O=C(Nc1nc(-c2cccs2)cs1)c1ccc([N+](=O)[O-])o1
1% | CC(OC(=O)Cc1ccccc1[N+](=O)[O-])C(=O)Nc1ccc(Cl)cn1 (stereo not given)
10% | CCN(CC)c1cc2nonc2c2nonc12
-9% | CC(C)Cn1c(N)c(C(=O)CSc2nnc(-c3ccco3)n2C)c(=O)n(C)c1=O
-1% | Cc1ccc(C(C)NC(=O)C2CCCO2)cc1C (stereo not given)
-5% | COc1ccc(Cn2ccc3nc(C)c(C(=O)N4CCN(c5ccccc5F)CC4)cc3c2=O)cc1
? | COc1ccc(C2=Nn3c(nnc3-c3ccccc3C(F)(F)F)SC2)cc1OC1CCOC1 (stereo not given)
-12% | Cc1ccc(NS(=O)(=O)c2ccc(NC(=O)c3ccccc3C(=O)O)cc2)cc1C
-11% | O=C1CC(c2ccccc2)Sc2ccccc2N1Cc1ccccc1F (stereo not given)

Quoted from above (22 entries):
VDR inh | SMILES
4% | COC(=O)c1ccc(NC(=O)c2cn(-c3ccccc3)nc2-c2ccncc2)cc1
2% | COc1ccc(S(=O)(=O)NCCc2cn3ccsc3n2)cc1OC
-5% | Cc1ccc(-c2nc(N)nc(N)n2)c(C)c1
? | COc1ccccc1-c1cncnc1NCc1cccnc1
-20% | CC(=C1C(=O)c2ccccc2C1=O)N1CCN(Cc2ccccc2)CC1
-10% | COc1ccc(N2CCN(C(=O)C3CCN(C(=O)c4cccc(Cl)c4)CC3)CC2)cc1
-14% | CCn1c(=O)c2cc(C(=O)N(CCCOC(C)C)Cc3ccco3)sc2c2ccccc21
-3% | O=C(N/N=C/C=C/c1ccccc1[N+](=O)[O-])c1cccnc1
12% | CCc1ccccc1NC(=O)c1ccc2c(O)c(S(=O)(=O)c3ccccc3)c(=O)[nH]c2c1
-10% | CCOC(=O)/C(=N\Nc1ccc(Cl)cc1)Sc1nnc(-c2ccc(OC)cc2)n1C
-7% | Clc1ccccc1OCCCCN1CCCCC1
-3% | O=C(O)c1cccc(NS(=O)(=O)c2ccc(Cl)c(C(=O)Nc3cccc([N+](=O)[O-])c3)c2)c1
17% | CCSC1=N/C(=C\C=C2/Oc3ccccc3N2CC)C(=O)S1
-11% | O=C(Nc1nc(-c2cccs2)cs1)c1ccc([N+](=O)[O-])o1
1% | CC(OC(=O)Cc1ccccc1[N+](=O)[O-])C(=O)Nc1ccc(Cl)cn1 (stereo not given)
10% | CCN(CC)c1cc2nonc2c2nonc12
-9% | CC(C)Cn1c(N)c(C(=O)CSc2nnc(-c3ccco3)n2C)c(=O)n(C)c1=O
-1% | Cc1ccc(C(C)NC(=O)C2CCCO2)cc1C (stereo not given)
-5% | COc1ccc(Cn2ccc3nc(C)c(C(=O)N4CCN(c5ccccc5F)CC4)cc3c2=O)cc1
? | COc1ccc(C2=Nn3c(nnc3-c3ccccc3C(F)(F)F)SC2)cc1OC1CCOC1 (stereo not given)
-12% | Cc1ccc(NS(=O)(=O)c2ccc(NC(=O)c3ccccc3C(=O)O)cc2)cc1C
-11% | O=C1CC(c2ccccc2)Sc2ccccc2N1Cc1ccccc1F (stereo not given)
